Source: PubChem BioAssay
ClpP mod – qHTS Assay for Activators of ClpP | purified B. subtilis ClpP, FRET peptide cleavage, 20 min | AID 651965, 2013 | Potency, µM (top dose mostly 57.5 µM), for inactives: at the highest dose activity change, negative = active | ATP-dependent Clp protease proteolytic subunit (Bacillus subtilis (strain 168)), P80244 | 1.9% of 340,000 active; active = well fitted falling curve with a large enough effect; inconclusive = small, poorly fitted or top-dose-only effect; inactive = no such curve, though single readings can be large or run the other way; note: potency is the fitted concentration of half-maximal effect; the source files actives as falling curves though it sought activators and does not explain the sign; nearly all actives have a fitted effect of over 65% in size; many hits overshoot -100%
Target sequence (P80244 whole entry, looked up): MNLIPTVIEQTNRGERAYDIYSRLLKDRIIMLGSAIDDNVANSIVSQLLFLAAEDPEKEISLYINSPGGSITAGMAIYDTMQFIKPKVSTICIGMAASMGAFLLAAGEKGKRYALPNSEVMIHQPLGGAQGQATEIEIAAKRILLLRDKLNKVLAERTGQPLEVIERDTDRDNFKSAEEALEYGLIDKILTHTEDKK
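Purified B. subtilis ClpP, 10 microg/mL final in Tris/HCl pH8 with KCl, BSA, glycerol and Tween-20, cleaved an Abz/nitrotyrosine-quenched decapeptide. Fluorescence (ex 320, em 430) was read at 0 and 20 min at room temperature. Delta was normalized to 5.8 microM ADEP and DMSO/no-enzyme controls.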
D2 potentiator – Beta-Arrestin HTS for Positive Allosteric Modulators of the Human D2 Dopamine Receptor: Potentiators; 0.23% of 360,000 active; potentiation, % (no concentration beside the values); DiscoveRx D2 beta-arrestin cells, luminescence, 90 min; 100% = 57 uM dopamine signal; D(2) dopamine receptor (Homo sapiens), P14416; AID 624464, 2012; active = potentiation of 50% or more; inconclusive = 30% to 50%; inactive = 30% or less;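 note: compound concentration not given in the record; tested on top of an EC20 dose of dopamine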
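D2 cells co-treated with compound plus 50 nM dopamine (EC20) for 90 min at 37 deg C to detect potentiation. Beta-arrestin recruitment was read as enzyme-fragment luminescence after 1 h at ambient temperature. Full response was set by 57 uM dopamine.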
Menin-MLL FL inh – qHTS Assay for Inhibitors Targeting the Menin-MLL Interaction in MLL Related Leukemias: Competition With Fluorescein Labeled MLL-derived Peptide; Fluorescence polarization, fluorescein-MLL peptide displacement from menin; FP activity change, % at 61.4 µM; 290,000 tested, under 10 active; AID 1766, 2009; inconclusive = falling polarisation curve, or a change in total fluorescence; inactive = total fluorescence flat and polarisation flat or rising; no compound was filed as active; the % refers to the polarisation; negative = inhibition;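 note: % of control where 0% means no effect; inhibitors lower the polarisation; unlabelled MLL peptide was the positive control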
TRPV1 PAM – HTS Assay for Compounds that Act as Potentiators of the Vanilloid Receptor 1; TRPV1-expressing cells, Fluo-8 calcium influx, capsaicin EC20 potentiation; host cell line not named in the record; control for the full effect not named in the record; 0.02% of 320,000 active; potentiation, % at 8.33 µM; active means potentiation above 80%; inconclusive means 30% to 80%; inactive means below 30%; note: 0% is about no effect
Target sequence (Q8NER1 whole entry, looked up): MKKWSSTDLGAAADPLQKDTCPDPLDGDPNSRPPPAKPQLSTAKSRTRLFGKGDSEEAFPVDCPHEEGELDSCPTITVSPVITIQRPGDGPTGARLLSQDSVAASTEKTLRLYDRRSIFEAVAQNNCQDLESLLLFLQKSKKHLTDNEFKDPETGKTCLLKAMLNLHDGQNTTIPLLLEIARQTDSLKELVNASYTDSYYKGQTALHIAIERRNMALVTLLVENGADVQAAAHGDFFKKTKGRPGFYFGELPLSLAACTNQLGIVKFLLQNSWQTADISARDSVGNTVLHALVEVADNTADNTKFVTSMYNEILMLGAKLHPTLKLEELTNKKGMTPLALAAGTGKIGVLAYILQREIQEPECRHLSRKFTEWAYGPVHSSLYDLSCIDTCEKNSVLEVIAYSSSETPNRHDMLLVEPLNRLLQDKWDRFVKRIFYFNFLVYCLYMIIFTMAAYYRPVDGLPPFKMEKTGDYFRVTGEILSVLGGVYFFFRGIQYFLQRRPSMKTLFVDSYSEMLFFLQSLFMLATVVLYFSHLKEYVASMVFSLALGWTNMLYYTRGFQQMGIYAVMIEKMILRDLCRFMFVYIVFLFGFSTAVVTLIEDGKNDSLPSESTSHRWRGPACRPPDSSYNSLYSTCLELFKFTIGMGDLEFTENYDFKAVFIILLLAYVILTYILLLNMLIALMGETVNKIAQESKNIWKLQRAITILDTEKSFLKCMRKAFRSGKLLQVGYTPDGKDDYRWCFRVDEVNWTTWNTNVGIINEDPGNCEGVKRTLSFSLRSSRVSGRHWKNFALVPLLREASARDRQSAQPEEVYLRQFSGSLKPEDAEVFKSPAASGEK
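Fluo-8 calcium influx in TRPV1-expressing cells, kinetic read (ex 480/em 520 nm). Compound added and read 3 min for agonist activity, followed by capsaicin at EC20 final and 2 min further read for enhancement.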
gsp ag – qHTS for Agonist of gsp, the Etiologic Mutation Responsible for Fibrous Dysplasia/McCune-Albright Syndrome: qHTS; gsp mutant cells, cAMP HTRF, 30 min; control for the full effect not named in the record; Potency, µM (doses to about 76.9 µM), without a hit: at the top dose activation (cAMP increase), most hits filed as activators; 0.13% of 340,000 active; AID 624287, 2012; active = well fitted activation curve with a large enough effect; inconclusive = small, poorly fitted or top-dose-only effect, or another doubt; inactive = no such curve, though single readings can be large or run the other way; cell line not stated here;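 note: phosphodiesterase inhibitor Ro 20-1724 added with compounds to block cAMP breakdown; potency is the fitted concentration of half-maximal effect; nearly all actives have a fitted effect of over 60% in size; about a fifth of the inactives were tested at one dose only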
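Cells stably selected in G418 were plated at 2000/well, grown 16-24 hr, then given compounds in DMSO with the PDE inhibitor […] (300 uM solution added) for 30 min at 37C; cAMP was read by HTRF.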
gsp antag – qHTS for Antagonists of gsp, the Etiologic Mutation Responsible for Fibrous Dysplasia/McCune-Albright Syndrome: qHTS; gsp-mutant cells, cAMP HTRF, 30 min; control for the full effect not named in the record; Potency, µM (series often up to 76.9 µM), for the others: at the highest dose activity change, negative = inhibition, actives largely listed as inhibitors; 0.4% of 340,000 active; AID 624288, 2012; active = falling curve of any shape with a large fitted effect; inconclusive = falling curve, mostly with a smaller effect; inactive = flat or rising curve; cell line not stated here;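 note: intracellular cAMP measured with PDE inhibitor Ro 20-1724 present during compound exposure; potency is the fitted concentration of half-maximal effect; % is set by controls: 0 for no effect and ±100 for the full control effect; nearly all actives have a fitted effect of over 65% in size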
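Cells, 2000/well, grown 16–24 h in DMEM 10% FBS with 0.5 mg/ml G418, then compounds plus […] (300 uM addition stock), 30 min at 37C. cAMP read by HTRF (cAMP-d2 and anti-cAMP antibody-K in lysis buffer) after 30 min RT.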
Sfp inh – qHTS Assay for Inhibitors of Bacillus subtilis Sfp phosphopantetheinyl transferase (PPTase); 4'-phosphopantetheinyl transferase ffp (Bacillus subtilis), Q9F4F7; Biochemical Sfp PPTase activity, qHTS; Potency, µM, for the others: max response, negative = inhibition, usual class: inhibitors; 3.5% of 310,000 active; active = well fitted inhibition curve with a large enough effect; inconclusive = small, poorly fitted or top-dose-only effect, or another doubt; inactive = no such curve, though single readings can be large or run the other way;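 note: the enzyme is Sfp with the accession as filed and its product quenches rhodamine fluorescence; potency is the fitted concentration of half-maximal effect; 0% = enzyme reaction without inhibitor and -100% = no enzyme wells; top concentration of the series not given in the record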
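Step 1, compound plus 15 nM Sfp-PPTase, 15 min, room temperature. Step 2, add rhodamine-CoA (5 uM) and BHQ-2-YbbR (12.5 uM). Step 3, read 525/598 nm fluorescence at 0 and 30 min.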
Active calls of the source: *; ? = inconclusive; · = no result given; & = joins results of further samples; [ ] = dose if it differs, or a comment.

1	O=S1(=O)CCN(Cc2csc(-c3cccs3)n2)CC1
2	O=c1c([N+](=O)[O-])c(N2CCCCCC2)c2ccccc2n1-c1ccccc1
3	CCn1c(C)c(C)c2cc(C(=O)NCCN3CCOCC3)ccc21
4	CCN=c1scc(C)n1/N=C/c1cc(Br)c(O)c(OC)c1
5	CC1CCc2nc(NC(=O)c3ccc(S(=O)(=O)N4CCCc5ccccc54)cc3)sc2C1 (stereo not given)
6	CC(C)CC1NC(=O)N(CC(=O)c2ccc3c(c2)OCCO3)C1=O (stereo not given)
7	CC(Oc1cc2oc(=O)c3c(c2cc1Cl)CCCC3)C(=O)NCc1ccccn1 (stereo not given)
8	CC(C)Cn1c(-c2ccccc2F)n[nH]c1=S
Assay by compound,1,2,3,4,5,6,7,8
ClpP mod,·,-17%,-15%,·,-11%,-10%,3.7%,-13%
D2 potentiator,-8,10,-32,0,-11,5,-12,8
Menin-MLL FL inh,-1.4,-0.5,-6.7,0.2,0.0,4.2,-1.7,6.2
TRPV1 PAM,-2,8,6,23,-7,7,-2,24
gsp ag,-4%[15.4 µM],-11%,5%,-3%[15.4 µM],2%,-13%,4%,2%
gsp antag,16%,-8%,0%,-7%,12%,12%,-14%,-6%
Sfp inh,3%,11%,7%,-24%,9%,15%,-5%,?

9	CCc1nc2sc3c(c2c(=O)n1N)CC(C)(C)OC3
10	Cc1cccc(NC(=O)CCc2c(C)nc3ncnn3c2C)n1
11	FC(F)(F)c1cnc(NNC(=S)Nc2ccc(Cl)cc2)c(Cl)c1
12	O=C(CCCc1c[nH]c2ccccc12)Nc1ncccc1O
13	COc1ccc(N2CCN(C(CNS(=O)(=O)c3ccccc3)c3ccccc3)CC2)cc1 (stereo not given)
14	CCOC(Cn1c(CCCO)nc2ccccc21)OCC
15	O=S(=O)(N/N=C/c1ccc2c(c1)OCCO2)c1ccccc1
16	O=C(c1cc(C2CC2)nn1-c1ccccc1)N1CCN(Cc2ccc(Cl)cc2)CC1
Assay by compound,9,10,11,12,13,14,15,16
ClpP mod,0.8%,2.4%,0.8%,-0.8%,-1.0%,-3.3%,0.5%,-2.6%
D2 potentiator,-3,8,-50,-6,-15,-15,-11,-27
Menin-MLL FL inh,0.5,6.4,0.9,·,-0.3,-0.7,4.3,·
TRPV1 PAM,9,7,-1,-5,-5,-6,2,-18
gsp ag,-2%,?,-34%[inhibitor],3%,0%,0%,9%,25%
gsp antag,15%,17%,-10%,2%,-13%,14%,2%,-14%
Sfp inh,29%,9%,-12%,1%,3%,2%,-22%,·

17	O=C(CN1CCN(c2ccc(F)cc2)CC1)N1N=CCC1c1ccccc1 (stereo not given)
18	CN(C(=O)COC(=O)C1CCN(S(=O)(=O)c2cccs2)CC1)c1ccccc1
19	CCc1ccc(NC(=O)C(C)OC(=O)C2CCN(c3ccc(C(F)(F)F)cn3)CC2)cc1 (stereo not given)
20	CN(C)C(=O)c1ccccc1Sc1cc(Cl)ccc1Cl
21	O=C(CCNC(=O)N1CCn2c1nc1ccccc12)NCc1ccc(F)cc1
22	COc1cccc(CNS(=O)(=O)c2c(C)nc3scc(C)n3c2=O)c1
23	OC(CNCc1ccccc1Cl)C(F)(F)F (stereo not given)
24	CN(Cc1cnn(C)c1)Cc1nc(C(c2ccccc2)c2ccccc2)no1
Assay by compound,17,18,19,20,21,22,23,24
ClpP mod,-1.1%,0.9%,?,-2.3%,0.5%,3.6%&4.1%,-0.1%,-0.2%
D2 potentiator,-19,-8,5,2,-9,-4,-1,-1
Menin-MLL FL inh,-2.2,-5.3,·,5.0,-1.3,-0.2,4.6,-0.7
TRPV1 PAM,?,-3,-4,12,4,20,8,-6
gsp ag,?,-23%,-1%[15.4 µM],1%,-5%,-11%,1%,2%
gsp antag,0%,8%,7%,1%,-4%,9%,9%,-7%
Sfp inh,11%,18%,·,11%,19%,1%,10%,9%

Entries 19 to 22 of the list above:
19	CCc1ccc(NC(=O)C(C)OC(=O)C2CCN(c3ccc(C(F)(F)F)cn3)CC2)cc1 (stereo not given)
20	CN(C)C(=O)c1ccccc1Sc1cc(Cl)ccc1Cl
21	O=C(CCNC(=O)N1CCn2c1nc1ccccc12)NCc1ccc(F)cc1
22	COc1cccc(CNS(=O)(=O)c2c(C)nc3scc(C)n3c2=O)c1
Assay by compound,19,20,21,22
ClpP mod,?,-2.3%,0.5%,3.6%&4.1%
D2 potentiator,5,2,-9,-4
Menin-MLL FL inh,·,5.0,-1.3,-0.2
TRPV1 PAM,-4,12,4,20
gsp ag,-1%[15.4 µM],1%,-5%,-11%
gsp antag,7%,1%,-4%,9%
Sfp inh,·,11%,19%,1%

Going on with the list:
25	COCCN(C(=O)c1csnn1)C(C(=O)NC1CCCCC1)c1cccs1 (stereo not given)
26	O=C(CN1C(=O)NC2(CCCC2)C1=O)NCc1ccco1
27	O=C(CN1C(=O)C2CC=CCC2C1=O)NCc1cccs1 (stereo not given)
28	CCC(CC)C(=O)Nc1ccc(C(=O)c2ccccc2)cc1
29	COc1cccc(NC(=O)Nc2cc(C)on2)c1
30	CSc1nc(O)c(Nc2ccccc2)c(=O)[nH]1
31	COc1cccc(N2CCN(CC(=O)NC(C)c3ccccc3)CC2)c1 (stereo not given)
32	Cc1ccc2nc(SCc3nnc(-c4ccccc4Br)o3)[nH]c2c1
Assay by compound,25,26,27,28,29,30,31,32
ClpP mod,-0.1%,-1.1%,·,-1.0%,1.5%,·,·,-1.0%
D2 potentiator,-9,-11,-6,-3,-3,5,-26,-12
Menin-MLL FL inh,0.2,·,-2.8,0.1,-3.6,·,3.9,2.7
TRPV1 PAM,0,·,-10,-3,-1,·,4,-12
gsp ag,8%,-16%,9%[15.4 µM],2%[15.4 µM],5%,-43%[inhibitor],-33%[inhibitor],-14%
gsp antag,1%,7%,2%,-10%,3%,2%,5%,-1%
Sfp inh,1%,·,12%,-8%,7%,·,14%,1%

33	Cc1nn(-c2ccccc2)c2c1C(c1ccccc1)C(C#N)=C(N)O2 (stereo not given)
34	CCN(CC)c1nc2ccccc2n(Cc2cccc(OC)c2)c1=O
35	CCc1ccc(NC(=O)Nc2ccc3c(c2)N(C)C(=O)CS3)cc1
36	CC(=O)Nc1ccc(NS(=O)(=O)c2ccc(-c3csc(C)n3)s2)cc1
37	CCc1cc(=O)oc2cc(OCC(=O)NCCCn3ccnc3)c(Cl)cc12
38	C=CCNc1oc(-c2ccc(OCC)cc2)nc1C#N
39	C=CCNC(=O)CCCOc1cc(C)ccc1C
40	COc1ccc(/C=C/C(=O)Nc2ccc3nc4n(c(=O)c3c2)CCCC4)cc1OC
Assay by compound,33,34,35,36,37,38,39,40
ClpP mod,-1.4%,·,-0.8%,·,4.3%,0.79µM*,-1.0%,4.2%
D2 potentiator,-11,-1,-11,-2,0,3,5,-19
Menin-MLL FL inh,0.6,4.0,1.2,-2.5,-5.8,5.4,-2.2,0.2
TRPV1 PAM,5,14,-7,-1,3,-1,-1,15
gsp ag,-1%,20%[15.4 µM],17%,?,21%,15%,2%,14%
gsp antag,5%,-3%,35µM*,-3%,5%,9%,7%,0%
Sfp inh,8%,-12%,-17%,-19%,12%,3%,-21%,15%

41	COC(=O)C1=CN(c2ccc(F)cc2)C=C(C(=O)OC)C1c1cccc(Br)c1
42	Cn1nccc1C(=O)NCCN1C(=O)OC(C)(C)C1(C)O (stereo not given)
43	CCOc1ccccc1N1CC(C(=O)N(CC)C2CCS(=O)(=O)C2)CC1=O (stereo not given)
44	COCC(C)NC(=O)/C=C/c1ccc(OC)cc1 (stereo not given)
45	CCCNC(=O)c1ccccc1NC(=O)c1ccccc1N(C)S(=O)(=O)c1ccc(C)cc1
46	COc1ccc(-c2nn(-c3ccccc3)cc2CNC(C)Cn2cncn2)c(F)c1 (stereo not given)
47	COc1ccc(/C=N\NC(=O)c2cc(O)c(O)c(O)c2)cc1COc1ccc(C(=O)OCC(C)C)cc1
48	CS/C(=C/[N+](=O)[O-])Nc1cccc2c1C(C)CC2(C)C (stereo not given)
Assay by compound,41,42,43,44,45,46,47,48
ClpP mod,3.7%,-1.2%,-1.1%,-3.5%,0.5%,-2.7%,-2.2%,·
D2 potentiator,-9,4,-4,-7,-7,-10,?,-1
Menin-MLL FL inh,-1.2,4.3,·,-0.1,1.3,-0.3,?,0.5
TRPV1 PAM,16,-7,·,14,-12,-3,10,-7
gsp ag,-70%[inhibitor],7%,6%,-1%,-2%,3%,9%,35%[15.4 µM]
gsp antag,-19%,4%,15%,0%,?,16%,-21%,-15%
Sfp inh,-7%,20%,·,15%,17%,7%,?,?

49	Nc1nnnn1-c1cccc([N+](=O)[O-])c1
50	N#C/C(=C(/O)CSc1nnc(Cc2cccs2)n1C1CCCCC1)c1nc2ccccc2[nH]1
51	Cc1ccc(OCC(=O)O)c(O)c1
52	COc1cc(CC(=O)N(CC(C)C)C2CCS(=O)(=O)C2)cc(OC)c1OC (stereo not given)
53	COc1ccc(NCc2nnc(SCC(=O)c3ccc(C)cc3)o2)cc1
54	O=C(NNc1nc2ccccc2o1)c1ccccc1
Assay by compound,49,50,51,52,53,54
ClpP mod,-4.4%,-3.7%,0.9%,-2.8%,-0.2%,·
D2 potentiator,-2,1,-6,-5,-1,-7
Menin-MLL FL inh,·,-1.3,·,·,0.7,3.0
TRPV1 PAM,·,-10,·,·,-4,-3
gsp ag,-19%,10%,-36%[inhibitor],-10%,-8%,21%
gsp antag,-3%,-6%,9%,7%,2%,-9%
Sfp inh,·,-9%,·,·,-8%,-12%
